LANA-H2A inh = blocks KSHV LANA binding to histone H2A/H2B | 0.6% of 320,000 active | inhibition, % (no concentration beside the values) | cell-free LANA-H2A/H2B peptide, fluorescence polarization | Q9QR71; in the data active = inhibition mostly above about 10%, no sharp cut-off; inactive = mostly below about 6.7%;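 also: stock transfer was 7.5 nL into about 10 µL; 0% = median of vehicle wells and 100% = median of positive control wells; one replicate is shown; the record names a cut of 25% in any replicate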
Ecoli growth = E. coli growth inhibition; Escherichia coli growth, OD600, 23 h; hits give low values; OD600 absorbance (test concentration not listed); 0.21% of 330,000 active; AID 1053175;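 active = OD600 absorbance below the run mean of sample wells minus 3.6 SD, in any replicate, cut at about 0.56 in these data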;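 also: stock transfer was 300 nL into about 60 µL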
B2AR ag = agonists of human beta-2 adrenergic receptor inducing internalization | Am2.2-beta2AR cells, FAP receptor internalization, flow cytometry; reference of the scale not given here | response, % (test concentration not listed) | 0.43% of 340,000 active | P07550;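 active = response above a set limit, near 3 SD of response in nonfluorescent compounds, cut at about 42% in these data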;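 also: stock transfer was 100 nL into about 11 µL; a reference agonist was the positive control; negative values mostly stem from fluorescent compounds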
Target sequence (P07550 whole entry, looked up): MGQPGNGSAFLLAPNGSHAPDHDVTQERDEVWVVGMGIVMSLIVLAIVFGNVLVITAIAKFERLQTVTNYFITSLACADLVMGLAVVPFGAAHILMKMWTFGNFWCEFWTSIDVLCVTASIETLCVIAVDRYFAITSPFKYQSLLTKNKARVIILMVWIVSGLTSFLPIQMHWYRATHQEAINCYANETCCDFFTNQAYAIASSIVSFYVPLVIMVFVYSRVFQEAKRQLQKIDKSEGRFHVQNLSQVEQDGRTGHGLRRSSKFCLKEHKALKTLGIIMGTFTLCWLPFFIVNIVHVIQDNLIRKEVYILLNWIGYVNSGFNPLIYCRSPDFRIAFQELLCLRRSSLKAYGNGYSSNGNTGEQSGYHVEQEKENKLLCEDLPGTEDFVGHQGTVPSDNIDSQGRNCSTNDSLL
Bfl-1 A1 inh = inhibitors of the anti-apoptotic protein A1, read as caspase activation; AID 2462; MEF A1-2A-BIM cells, Caspase-Glo 3/7 luminescence, 3 h; percent of clofoctol response, vehicle zero; caspase activation, % (no concentration beside the values); 0.066% of 330,000 active;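 active = over half of replicate activation scores above 10%, or exactly half above 10 with the replicate mean above 10; inconclusive = replicate mean below 10 yet half the replicates above 10; inactive = over half of replicates below 10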;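 also: wells of about 30 µL received 50 nL stock; many hits fall short of the cut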
UCH37 inh = human UCH37 deubiquitinating enzyme inhibition | Q9Y5K5 | purified proteasome/UCH37, Ub-AMC cleavage fluorescence | inhibition, % (test concentration not listed) | 0.33% of 330,000 active | AID 588478;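 active = mean of two replicates above 20%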;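 also: 0% = compound-free wells with enzyme and 100% = wells lacking proteasome; stock transfer was 100 nL into about 20 µL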
Target sequence (Q9Y5K5 whole entry, looked up): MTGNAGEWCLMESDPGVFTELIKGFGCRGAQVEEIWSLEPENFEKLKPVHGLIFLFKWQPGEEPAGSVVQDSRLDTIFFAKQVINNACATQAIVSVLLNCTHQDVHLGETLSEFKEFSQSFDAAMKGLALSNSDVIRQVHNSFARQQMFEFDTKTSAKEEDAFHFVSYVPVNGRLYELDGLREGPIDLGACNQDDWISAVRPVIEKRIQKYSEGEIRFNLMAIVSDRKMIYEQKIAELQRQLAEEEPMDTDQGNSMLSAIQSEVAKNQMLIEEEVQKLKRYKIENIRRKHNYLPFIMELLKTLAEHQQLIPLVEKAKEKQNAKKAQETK
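System: Proteasome-associated human UCH37 deubiquitinase; Input: 0.15 nM proteasome in added enzyme buffer; Also added: Ub-AMC substrate from 1 µM stock; Incubation: 30 min compound-proteasome preincubation then 25 min substrate reaction, room temperature; Detection: fluorescence, ex 355 nm, em 460 nm; Read-out: % inhibition of Ub-AMC cleavage fluorescence; Benchmarks: no-proteasome and no-compound wells.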
Vif A3G = inhibitors of Vif binding to APOBEC3G peptide, primary screen, biochemical, TR-FRET, GST-Vif 1-94, biotin-A3G peptide, dose response retest (AID 1117319); 0.57% of 260,000 active; TR-FRET GST-Vif / biotin-A3G peptide binding; higher % means a stronger effect; test concentration not given here; strong numbers were not always called active; one-dose inhibition, %; IC50 in µM for titrated hits;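 active = above the screen mean plus three standard deviations and confirmed in dose response; inconclusive = results disagree or hit not tested in dose response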;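 also: Vif residues 1-94 fused to GST binding biotinylated APOBEC3G peptide 110-148; 0% = full assay without inhibitor and 100% = GST in place of GST-Vif; retest series ran down from 100 µM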
HNF4A DNA FP = change in binding of human HNF4 alpha to DNA; P41235; HNF4a-FITC DNA binding, fluorescence polarization, 1 h; activity change, % at 10 µM; 0.3% of 360,000 active; AID 1224865; in the data active = activity change above about 30%, passing the limit was not always enough;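 also: controls were the assay level and a saturating level of protein; the project sought stronger binding though the title names inhibitors; some compounds called inactive have numbers as strong as hits; positive values seem to mean higher polarization but the record does not say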
The depositor's hits bear a star; i = inactive; ? = inconclusive; / = no result given.

SMILES,LANA-H2A inh,Ecoli growth,B2AR ag,Bfl-1 A1 inh,UCH37 inh,Vif A3G,HNF4A DNA FP
O=C(CN(c1ccccn1)S(=O)(=O)c1ccccc1)N/N=C/c1cccc([N+](=O)[O-])c1,3.1,/,-1,1.0,/,/,0.7
CC(C)C(=O)NC(=S)Nc1ccc(S(=O)(=O)NC(C)(C)C)cc1,-4.1,0.8,3,0.7,4.3,-6%,-0.4
O=C(CCNS(=O)(=O)c1ccc(Cl)cc1)NCc1ccccn1,2.2,0.66,-12,-0.2,-0.8,1%,-1.2
Cc1cnc(C)c(N2CCN(Cc3nc(-c4ccc(C)o4)oc3C)CC2)n1,-0.8,0.62,-7,-0.1,-0.5,-10%,-1.2
CC(C)CN(C(=O)CSc1nc2ccccc2c(=O)n1C)C1CCS(=O)(=O)C1 (stereo unspecified),-307,0.7,7,-0.1,0.4,-1%,2.7
Cc1ccc(NS(=O)(=O)c2cc(C(=O)N3CCN(C)CC3)ccc2C)cc1C,1.2,0.68,8,0.9,0.8,2%,0.3
CSCC[C@H](NC(=O)Nc1ccc(S(N)(=O)=O)cc1)C(=O)O,0.7,0.73,-6,-0.2,1.3,1%,-1.2
CCCN1CCN(C(=O)CCCNC(=O)Cn2cnc3sc(C)c(C)c3c2=O)CC1,-2.3,0.73,-2,0.1,2.5,0%,-2.9
CCn1ncc(C(=O)Nc2ccc(S(=O)(=O)N3CCCC3)cc2)c1C,-5.3,0.69,0,-0.9,6.8,13%,1.0
COc1cccc(NC(=O)C2CSC3(C)CCC(=O)N23)c1 (stereo unspecified),2.0,0.72,-1,1.0,-1.8,-4%,1.8
CN(C(=O)c1ccncc1)c1ccccc1,2.4,0.7,-7,-2.1,3.3,2%,0.9
CCC(C)NC(=O)c1ccc(N2CCC3(CC2)OCCO3)c([N+](=O)[O-])c1 (stereo unspecified),2.1,0.65,-8,0.6,-0.2,/,6.2
O=C(NCc1ccccc1)c1ccc2c(c1)OCCO2,2.0,0.72,5,1.7,-2.5,-2%,0.2
CCCCNc1ncnc2sc3c(c12)CCN(CCC)C3,-0.3,0.63,5,0.1,-75,-7%,4.2
Cc1cc(C)n(-c2ccc(C(=O)OCC(=O)NC(c3ccccc3)c3ccccc3)cc2)n1,-2.4,0.75,2,0.5,3.0,-7%,-1.0
N#Cc1cn(CC(=O)O)c2ccccc12,2.5,0.69,4,0.0,-1.4,8%,0.7
CC1=CN2C(=NC(=O)CC2(C)C(=O)N(CC(=O)NC2CCCC2)c2cc(C)cc(C)c2)C=C1 (stereo unspecified),-1.3,0.65,-3,-0.2,i,1%,1.9
CCCN(CC(=O)Nc1ccccc1OC)C(=O)c1cnc(Cl)c(Cl)c1,-1.7,0.67,-3,-0.3,5.2,1%,1.0
COc1ccc(NC(=O)CCOc2ccccc2F)cc1S(=O)(=O)N1CCCCC1,1.8,0.66,4,1.3,4.1,-4%,-0.7
O=C(NCc1ccco1)c1cc([N+](=O)[O-])ccc1Cl,5.9,0.73,3,-0.4,6.0,/,-0.9
COc1ccc(/C=C(\NC(=O)c2ccco2)C(=O)NCc2ccco2)cc1,6.0,0.67,-5,-0.1,4.8,/,-0.9
C=CCN1C(=O)C(CC(=O)Nc2ccccc2)N(Cc2ccccn2)C1=S (stereo unspecified),-6.2,0.75,1,0.0,4.5,-2%,-2.3
Cc1ccc(S(=O)(=O)CC(c2ccccc2)N2CCOCC2)cc1 (stereo unspecified),-2.9,0.65,5,0.2,2.0,1%,3.6
OC1(c2ccccc2)CCN(Cc2ccccc2)C2CCCCC21 (stereo unspecified),5.8,0.65,21,0.1,3.7,/,3.9
CC(C)Nc1nc(NC(C)(C)C)nc(Oc2ccc(=O)n(C)n2)n1,-2.3,0.69,-6,-0.7,3.9,4%,-0.1
Cc1ccc(NC(=O)[C@H](CC(C)C)NC(=O)[C@@H]2Cc3ccccc3CN2)cc1,-0.9,0.69,1,0.8,3.4,/,-4.1
Cc1cc(OCC(O)CN2CCc3ccccc3C2)ccc1Cl (stereo unspecified),-0.1,0.6,-3,0.1,6.9,/,0.1
Cc1ccc(C(=O)CSc2ccc(-c3cccnc3)nn2)cc1,10,0.64,0,-0.2,5.6,-2%,-1.6
COc1cc(SC#N)ccc1N=Cc1c(C)[nH]n(-c2ccc(C)cc2C)c1=O,0.2,0.72,13,0.7,0.2,-1%,3.3
CCOC(=O)c1ccc2[nH]c3c(c2c1)CN(C)CC3,-1.9,0.75,6,1.5,-1.3,-4%,4.5

Rewritten as labelled records: 2 of the compounds above
Cc1ccc(C(=O)CSc2ccc(-c3cccnc3)nn2)cc1
- LANA-H2A inh = 10
- Ecoli growth = 0.64
- B2AR ag = 0
- Bfl-1 A1 inh = -0.2
- UCH37 inh = 5.6
- Vif A3G = -2%
- HNF4A DNA FP = -1.6

O=C(NCc1ccco1)c1cc([N+](=O)[O-])ccc1Cl
- LANA-H2A inh = 5.9
- Ecoli growth = 0.73
- B2AR ag = 3
- Bfl-1 A1 inh = -0.4
- UCH37 inh = 6.0
- Vif A3G = /
- HNF4A DNA FP = -0.9

Further records
SMILES,LANA-H2A inh,Ecoli growth,B2AR ag,Bfl-1 A1 inh,UCH37 inh,Vif A3G,HNF4A DNA FP
COc1ccc(-c2cc(C(=O)NC(C(=O)O)C(C)C)c(C)o2)cc1OC (stereo unspecified),-2.1,0.69,-8,-0.5,-1.7,11%,1.6
Cc1ccc(NC(=O)CCn2cccc2)cc1F,-1.0,0.66,-2,-0.7,0.7,1%,0.2
Cc1ccc(N(CC(=O)NCCSc2nc3ccccc3s2)S(=O)(=O)c2ccccc2)c(C)c1,4.1,0.74,4,0.6,2.1,-5%,-2.0
Cc1ccc(CNC(=O)Nc2ccc(OC(F)(F)F)cc2)n1C,1.6,0.65,4,-0.1,0.7,-1%,4.1
Cc1cc(C)cc(NC(=O)c2ccc(CSc3nnc(C)s3)cc2)c1,2.0,0.68,3,0.1,-2.8,4%,-1.1
C=CCn1c(SCC2CCCCO2)nc2sc(CC)cc2c1=O (stereo unspecified),-6.3,0.66,-6,-1.3,2.6,-7%,0.5
O=C1C(Nc2ccccc2)=CC(c2ccc(O)cc2)N1c1ccccc1 (stereo unspecified),-1.7,0.71,15,0.6,-0.2,?,1.2
Nc1nonc1-n1nnc(C(=O)N/N=C/c2ccc(Cl)cc2)c1-c1ccc2c(c1)OCO2,0.5,/,-1,0.6,/,/,3.3
O=c1ncn(-c2cccc(Cl)c2)c2ccccc12,1.8,0.7,-10,0.3,4.7,/,0.2
CC1(C(=O)CSc2nc3ccccc3s2)CCC(=O)O1 (stereo unspecified),0.3,0.69,-1,-0.2,1.2,2%,3.2
CCOC(=O)c1c(NC(=O)COC(=O)c2nccnc2N)sc(C(=O)N(C)C)c1C,-10,0.62,2,0.3,-272,1%,2.6
COc1ccc(CCNC(=O)C2CCN(Cc3nc(-c4ccccc4F)oc3C)CC2)cc1OC,-1.3,0.7,6,-0.6,2.8,-6%,-3.2
CCc1ccccc1OCC(=O)Nc1ccc(S(N)(=O)=O)cc1,-4.0,0.72,0,-0.1,2.7,-6%,-2.1
Cc1nc2scc(-c3ccc(C(C)C)cc3)c2c(=O)n1N,0.2,0.63,-4,-1.8,6.8,-5%,-2.9
Cn1c(=O)c(=O)n(C)c2cc(S(=O)(=O)NCCOc3ccccc3Cl)ccc21,0.8,0.66,-4,-0.4,4.3,-3%,0.3
COc1ccc(-n2cnc3ccccc32)cc1,1.8,0.68,-2,0.5,1.8,-3%,5.1
Cc1noc(C)c1CSc1nnc2sc3ccccc3n12,-6.4,0.68,-5,0.7,2.0,-3%,0.4
CCOC(=O)N1CCC(NC(=O)c2ccc(CS(=O)c3ccc(Cl)cc3)o2)CC1 (stereo unspecified),-3.7,0.66,-3,0.0,1.0,/,1.2
COc1ccccc1C(CNC(=O)C1COc2ccccc2O1)N1CCCC1 (stereo unspecified),-7.5,0.67,-4,-0.3,5.1,-15%,-1.0
Cc1ccc(NS(=O)(=O)c2ccccc2)c(NS(=O)(=O)c2ccccc2)c1,/,0.66,6,/,0.7,11%,4.2
COc1ccc(CN2C(=O)CNC2=S)cc1,-2.2,0.66,26,-0.5,5.4,4%,0.4
COc1ccc(-c2noc3c2-c2nc(-c4ccc(Br)cc4)sc2CC3)cc1,-1.6,0.67,8,0.3,-7.9,/,-5.9
Cc1sc2ncnc(N3CCC(C(=O)Nc4nc(-c5cccs5)cs4)CC3)c2c1C,1.8,/,20,0.2,/,/,6.6
CCCn1c(C)cc(/C=C(\C#N)C(=O)O)c1C,5.2,0.68,7,-0.6,17,13%,0.6
CC1(C(=O)NC(=S)N(CCC#N)Cc2cccnc2)CC1(Cl)Cl (stereo unspecified),-0.6,0.63,/,-1.2,1.2,3%,/
Cc1sc2ncnc(OCC(=O)NCC3CCCO3)c2c1C (stereo unspecified),2.9,0.72,1,-0.6,3.5,70%,3.3
CC(C)(CC(=O)O)CC(=O)N1CCCN(c2nccc(C(F)(F)F)n2)CC1,-0.1,0.65,-2,-0.4,0.8,4%,1.3
Cc1ccc(Nc2cc(C)c(O)c(C)c2)cc1,-2.1,0.62,6,-0.4,1.2,15%,-0.5
CC(C)c1nc(SCC(=O)Nc2cccc3ccccc23)n[nH]1,6.0,0.69,2,0.7,4.1,-9%,3.9
CSc1sc(C(=O)NNC(=O)c2ccc(Cl)cc2)c2c1C=CCC2,2.6,/,10,0.4,/,8%,-0.4
CNC(=O)CSc1nc2ccccc2c(=O)n1CCc1ccccc1,4.6,0.68,-7,-0.1,4.3,/,-4.0
O=C(C1CCN(c2nnc(-n3cccc3)s2)CC1)N1CCOCC1,-2.7,0.71,-8,0.1,2.6,5%,-2.0
Cc1cc(OCc2cc(C(=O)NC(C)c3c(C)nn(C)c3C)no2)cc(C)c1Cl (stereo unspecified),0.4,0.68,-4,0.2,2.9,/,-0.2
COc1cc(/C=C/C(=O)OCC(=O)N2CCC(Cc3ccccc3)CC2)ccc1O,-4.5,0.69,3,-0.4,-18,/,-1.8
COc1ccc(OC)c(N=CC2=C(O)CC(C)(C)CC2=O)c1,-3.5,0.62,8,0.4,12,8%,-2.2
CC(C)NC(=O)Cn1c(=O)c2c(ncn2Cc2ccccc2)n(Cc2ccccc2)c1=O,-0.8,0.73,4,0.6,2.2,1%,1.2
CN(C(=O)c1cccc(NC(=O)Cc2ccc(NC(=O)C3CCN(C(=O)C4CCCCC4)CC3)cc2)c1)C1CC1,/,0.65,-10,/,0.2,/,-0.8
O=C(NC1CC2CCC(C1)N2Cc1ccccc1)c1cccc(F)c1 (stereo unspecified),0.8,0.66,-8,0.5,2.2,4%,0.3
CCn1c(=O)cc(N2CCN(Cc3ccccc3)CC2)[nH]c1=O,0.0,0.79,-2,0.4,3.3,/,4.7
Cc1c(NC(=O)C(C)OC(=O)Cc2ccc(F)cc2)c(=O)n(-c2ccccc2)n1C (stereo unspecified),-2.2,0.67,-18,0.0,4.5,0%,-1.0
C=CCSc1nc(N)c2c(C)c(C)sc2n1,-8.7,0.73,-5,-0.4,0.8,6%,-1.3
Cc1[nH]c(=O)c(C#N)c(C)c1CCC(=O)Nc1cc(S(C)(=O)=O)ccc1Cl,-2.4,0.67,-10,0.6,-0.2,6%,2.9
CCOC(=O)C1CCCN(C(=S)NC2CCCCC2)C1 (stereo unspecified),4.2,0.73,13,0.0,-0.9,/,-1.0
CCOc1ccc(C(=O)N2CCN(c3ccccn3)CC2)cc1OCC,-3.9,0.66,-4,-0.2,5.2,/,1.0
